# Screens as filed in PubChem BioAssay.
# Rango complex inh: Rango-importin beta binding inhibition | Q14974 | Rango CFP/YFP FRET sensor + importin beta, 45 min | Potency, µM (top dose mostly 92.2 µM), for inactives: top-dose inhibition of complex formation | 0.031% of 340,000 active | AID 540263; active = rising FRET ratio curve, often small or poorly fitted; inconclusive = mostly compound fluorescence or quenching in the first reads; inactive = flat curves in all reads;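 also: potency is read from the fitted curve at half-maximal effect; 0% = DMSO wells and 100% = buffer wells lacking importin beta; nearly all actives have a fitted effect of over 15% in size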
# Target sequence (Q14974 whole entry, looked up): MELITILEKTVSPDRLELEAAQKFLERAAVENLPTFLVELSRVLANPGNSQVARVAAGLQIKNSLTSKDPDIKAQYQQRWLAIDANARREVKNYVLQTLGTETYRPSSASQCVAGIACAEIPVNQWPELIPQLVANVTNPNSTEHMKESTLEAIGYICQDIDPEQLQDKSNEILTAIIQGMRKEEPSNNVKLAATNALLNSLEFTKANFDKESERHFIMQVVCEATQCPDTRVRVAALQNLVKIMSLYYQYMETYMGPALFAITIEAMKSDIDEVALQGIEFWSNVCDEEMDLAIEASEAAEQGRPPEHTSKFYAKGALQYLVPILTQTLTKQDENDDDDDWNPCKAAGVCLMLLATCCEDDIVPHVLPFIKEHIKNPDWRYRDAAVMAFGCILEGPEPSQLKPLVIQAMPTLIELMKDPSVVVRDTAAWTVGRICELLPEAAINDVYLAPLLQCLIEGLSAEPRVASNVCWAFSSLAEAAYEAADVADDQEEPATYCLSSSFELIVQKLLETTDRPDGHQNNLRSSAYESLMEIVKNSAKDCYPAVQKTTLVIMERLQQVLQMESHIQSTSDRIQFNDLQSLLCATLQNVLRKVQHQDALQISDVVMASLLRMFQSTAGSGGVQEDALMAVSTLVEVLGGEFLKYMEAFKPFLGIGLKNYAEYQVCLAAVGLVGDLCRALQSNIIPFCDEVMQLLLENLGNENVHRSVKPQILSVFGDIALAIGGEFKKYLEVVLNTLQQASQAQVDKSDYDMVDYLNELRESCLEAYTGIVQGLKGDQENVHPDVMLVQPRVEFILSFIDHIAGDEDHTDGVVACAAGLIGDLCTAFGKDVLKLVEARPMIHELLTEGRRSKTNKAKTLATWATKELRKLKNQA
#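 FRET biosensor (snurportin 1 IBB flanked by EYFP and cerulean), 50 nM, with compound 5 min, then 0.125 microM importin beta in PBS, 1 mM DTT, 0.02% Tween-20, 0.1% BSA. CFP/YFP ratio read after 45 min at room temperature; pre-read flags interference.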
# miR-21 reporter: raises the signal of a miR-21 reporter | HeLa miR-21 FLuc reporter, luciferase, 48 h | Potency, µM (doses to about 38.3 µM), for the others: at the top dose reporter change, positive = more light | 340,000 tested, under 10 active; active = well fitted rising curve with a large enough effect; inconclusive = small, poorly fitted or top-dose-only effect; inactive = no such curve, though single readings can be large or run the other way;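 also: % of control where 0% means no effect; miR-21 action dims this reporter so a rising signal means less miR-21 action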
#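 HeLa cells stably expressing CMV-driven firefly luciferase with a downstream miR-21 binding sequence, endogenously expressing miR-21, were treated with titrations (up to about 40uM final) for 48 hours at 37 degree Celsius. Luciferase luminescence was read after lysis.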
# GLA inh pH 4.5: inhibitors of human alpha-galactosidase A at pH 4.5; AID 1467; 230,000 tested, under 10 active; purified enzyme, 4-MU-alpha-Gal fluorescence, pH 4.5; activity change, negative = inhibition, % at 105 µM; P06280; inconclusive = small, poorly fitted or top-dose-only inhibition, or a rising curve; inactive = flat fitted curve, though single readings scatter; no compound was filed as active;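 also: 0% = full activity with enzyme and -100% = basal without enzyme; dose as in the result columns while the protocol names 77 µM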
# Rango dissoc inh: inhibitors of RanGTP-induced Rango-importin beta complex dissociation. 0.071% of 340,000 active. O95149+P62826. AID 540253. Potency, µM (highest dose often 46.1 µM), for the others: at the highest dose activity change, negative = inhibition. Biochemical FRET Rango-importin beta, RanGTP-induced dissociation; active means falling FRET ratio curve, often poorly fitted, with flat reads before Ran was added; inconclusive means other falling curves, or compound fluorescence or quenching; inactive means flat or rising ratio curve;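 also: potency is read from the fitted curve at half-maximal effect; % of control where 0% means no effect; nearly all actives have a fitted effect of over 45% in size; -100% = wells without RanGTP and RCC1; the record marks most hits as doubtful in a second field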
#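 Two FRET readings bracket the reaction: one 5 min after compound meets Rango–importin beta, another 45 min after RanGTP-RCC1 (0.6 uM Ran, 0.2 uM RCC1, 2 mM GTP) is added. Only the second defines inhibition.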
# Numbers without * were called inactive; ? = inconclusive; · = no result given; & = joins results of further samples. An excerpt; rates above refer to the full screens.
SMILES,Rango complex inh,miR-21 reporter,GLA inh pH 4.5,Rango dissoc inh
Nc1nc(NCCN2CCOCC2)nc(NCc2ccccc2)c1[N+](=O)[O-],3.2%,-9.7%,-12.2,-11.1%
CC(C)(C)c1cc(NC(=O)c2cc(F)c(F)c(F)c2F)no1,-0.5%,0.3%,-3.6,13.6%
C=CCOc1ccc(C2c3c(oc4ccccc4c3=O)C(=O)N2CCCN2CCOCC2)cc1 (stereo not drawn),-4.3%,-22.0%,-8.0,-21.5%
Cc1cc(C)n(-c2ccc(C(=O)NCc3ccc(F)cc3)cc2)n1,0.1%,-6.6%,-3.0,-4.1%
O=C(c1cc(-c2ccc(Cl)cc2Cl)on1)N1CCN(C(=O)c2ccco2)CC1,0.5%,-19.7%,-1.8,-1.6%
Clc1ccc2nc(-c3ccccc3)nc(C(Cl)Cl)c2c1,0.4%,10.5%,-2.9,8.9%
COC(=O)CNC(=O)c1cccc(-c2ccc(OC)cc2)c1,-0.4%,-25.7%,6.9,1.4%
COc1ccc(C)cc1NC(=O)CCN1CCCC1,0.0%,-1.1%,3.0,-12.5%
CN(C)/C=N/N(C)c1ncccc1[N+](=O)[O-],-0.1%,-0.1%,-3.0,13.1%
CC1CCN(S(=O)(=O)c2ccc3nc(N4CCN(c5ccccc5)CC4)ccc3c2)CC1,0.3%,1.8%&3.2%,·,16.5%
CCOC(=O)c1sc(NC(=O)CN2C(=O)NC3(CC(C)CC(C)(C)C3)C2=O)cc1C (stereo not drawn),-1.9%,·,·,-7.9%
O=C(O)C1CCN(C(=O)c2ccccc2Cl)CC1,-2.3%,-2.5%,-2.7,25.8%
O=C(/C=C/c1ccc(Cl)cc1Cl)N(Cc1ccccc1)C1CCS(=O)(=O)C1 (stereo not drawn),-0.6%,-7.7%,-2.8,3.0%
COc1ccccc1N1CCN(C(=O)CSc2nnc(NC(=O)C3CC3)s2)CC1,-1.8%,5.8%,-3.3,13.4%
Cc1c(C(=O)O)sc(S(=O)(=O)N2CCN(C(=O)Cc3ccc(F)cc3)CC2)c1C(=O)O,0.2%,·,·,16.7%
CN1CCN(C(=O)CCC(=O)O)CC1,5.6%,7.1%,5.8,?
O=C1NC(=S)CN1c1ccccc1,-2.2%,-0.3%,-4.4,1.5%
O=C(COC(=O)COc1ccccc1[N+](=O)[O-])Nc1cccc(Br)c1,-1.5%,-6.0%,?,-1.5%
Cc1nc(C)c(C(=O)C2=C(O)C(=O)N(CCCn3ccnc3)C2c2ccccc2)s1 (stereo not drawn),?,-13.0%,4.4,?
CCC(C)N1CCN(S(=O)(=O)c2ccc(NC(C)=O)cc2)CC1 (stereo not drawn),-1.2%,-0.6%,3.1,-5.6%
O=c1[nH]cc(S(=O)(=O)N2CCN(c3cccc(Cl)c3)CC2)c(=O)[nH]1,0.0%,·,·,-1.8%
Cc1ccc(S(C)(=O)=O)cc1C(=O)NC(C)C1CC2CCC1C2 (stereo not drawn),-0.1%,-2.4%,·,0.4%
COc1nc(NCCN2CCOCC2)nc(Nc2ccccc2)n1,4.4%,-48.4%,-6.0,-11.6%
CC(C)C(c1nnnn1C(C)(C)C)N1CCC(Cc2ccccc2)CC1 (stereo not drawn),-3.4%,1.8%,-0.3,-3.2%
CN(C(=O)c1ccco1)c1ccccc1C(=O)O,0.7%,-2.6%,·,1.4%
COc1ccc(-c2csc(NC(CO)c3nc4ccccc4n3Cc3ccc(C)cc3)n2)cc1 (stereo not drawn),0.2%,·,·,25.3%
O=C(CNC(=O)c1ccccc1F)OCc1csc(-c2ccccc2)n1,0.6%,-33.7%,5.2,13.0%
Cc1cc(C)c2sc(C)[n+](CCCS(=O)(=O)[O-])c2c1,?,0.2%,3.1,-8.2%
Cc1cc(=O)n2[nH]c(N)c(N=Nc3ccccc3)c2n1,5.6%,-8.5%,-8.6,-3.4%
COC(=O)C(=O)/C=C(\O)c1ccc(C)cc1,0.7%,-7.5%,2.8,3.4%
Cc1ccc(S(=O)(=O)CC(=O)Nc2cccc(C)n2)cc1,1.1%,2.9%,·,-8.6%
Cc1ccc(CN2CC(C(=O)Nc3cccc(S(=O)(=O)N4CCCCC4)c3)CC2=O)cc1 (stereo not drawn),1.1%,18.6%,-10.5,1.1%
Cc1c(C(=O)NCCNc2ncc(C(F)(F)F)cc2Cl)cccc1[N+](=O)[O-],1.4%,4.3%,·,-19.0%
O=C(NCC(c1ccc(F)cc1)N1CCOCC1)c1cccnc1Sc1ccccc1Cl (stereo not drawn),-4.3%,·,·,?
O=C(CN1C(=O)c2cccc([N+](=O)[O-])c2C1=O)NNC(=O)c1ccc(F)cc1,-0.5%,·,·,4.8%
COc1ccccc1OCCNC(=O)/C=C/c1ccc([N+](=O)[O-])cc1,1.5%,-13.4%,1.2,0.4%
CN(C)S(=O)(=O)n1cc(/C=C(\NC(=O)c2ccccc2Cl)C(=O)N2CCCC2)c2ccccc21,0.0%,1.0%,·,8.9%
CCOC(=O)C1=C(N)N2C(=O)C(C)SC2=C(C(=O)OCC)C1c1cc(OC)c(OC)c(OC)c1 (stereo not drawn),-1.3%,6.4%,2.2,-4.3%
CCN(CC(O)Cn1c2ccccc2c2ccccc21)S(=O)(=O)c1ccc(C)cc1 (stereo not drawn),-1.9%,2.7%,-4.9,2.3%
Cc1ccc2oc(C(=O)Nc3nnc(CC(C)C)s3)c(C)c2c1,1.5%,-0.3%,·,2.0%
Cc1c(Cl)cccc1NC(CC(=O)c1ccccc1)C(=O)OCC(=O)c1cccs1 (stereo not drawn),0.6%,-18.7%,5.6,9.3%
COc1cccc(OC)c1C(=O)Nn1c(-c2cccs2)nc2ccccc2c1=O,-1.1%,15.7%,-0.9,-10.6%
Cc1c(C(=O)Nc2ccc(S(=O)(=O)Nc3ncccn3)cc2)oc2ccc(F)cc12,0.6%,-8.1%,·,6.7%
CC12CN3CC(C)(CN(C1)C3c1ccc3c(c1)OCO3)C2O (stereo not drawn),-0.3%,0.2%,-6.9,5.6%
CCn1c2ccccc2c2cc(NC(=O)C(C)Oc3ccc(OC)cc3)ccc21 (stereo not drawn),-1.8%,-1.8%,6.2,-13.7%

# Continued; it opens with the 4 that closed the last part.
SMILES,Rango complex inh,miR-21 reporter,GLA inh pH 4.5,Rango dissoc inh
COc1cccc(OC)c1C(=O)Nn1c(-c2cccs2)nc2ccccc2c1=O,-1.1%,15.7%,-0.9,-10.6%
Cc1c(C(=O)Nc2ccc(S(=O)(=O)Nc3ncccn3)cc2)oc2ccc(F)cc12,0.6%,-8.1%,·,6.7%
CC12CN3CC(C)(CN(C1)C3c1ccc3c(c1)OCO3)C2O (stereo not drawn),-0.3%,0.2%,-6.9,5.6%
CCn1c2ccccc2c2cc(NC(=O)C(C)Oc3ccc(OC)cc3)ccc21 (stereo not drawn),-1.8%,-1.8%,6.2,-13.7%
COc1ccc(C(c2nnnn2C2CCCC2)N2CCN(C3CCCC3)CC2)cc1OC (stereo not drawn),-2.5%,-2.2%,-7.8,0.3%
CCCn1c(SCC(=O)Nc2cccc(C)n2)nnc1-c1ccco1,0.2%,-8.9%,2.8,13.6%
COc1ccc(S(=O)(=O)n2cnc3ccccc32)c(C)c1,1.7%,4.7%,·,?
Cc1ccc(NC(=O)CSc2nc3c(c(=O)[nH]2)CCC3)cc1C,-0.4%,-10.9%,-1.0,-14.3%
CC(C)(C)NC(=O)COC(=O)c1c2c(nc3ccccc13)CCC2,-0.1%,9.2%,·,0.4%
COc1ccc2nc(NC3=NCCC3)sc2c1,-0.4%,-47.6%,0.8,1.7%
CN(C(=O)COC(=O)c1cncc(Br)c1)C1CCS(=O)(=O)C1 (stereo not drawn),-1.8%,-1.8%,3.9,5.7%
O=C(COc1ccc(/C=N/NC(=O)c2ccccc2Br)cc1)Nc1ccccc1,3.4%,-7.1%,·,-1.4%
Cc1cc(C)cc(C(=O)NCCCc2ccccc2)c1,-2.3%,-2.3%,4.1,3.9%
COc1ccc2c(c1)O/C(=C\c1ccco1)C2=O,?,-25.2%,-3.1,?
COc1cc(C(=O)N/N=C(\C)c2ccccn2)cc(OC)c1OC,3.3%,-9.6%,·,-10.6%
COC(=O)c1cnn(-c2ccc(F)cc2F)c1/C=N/NC(=S)NC(C)(C)C,-0.9%,-0.6%,-1.4,-8.0%
CC(C)CCN1C(=O)c2ccc(C(=O)Nc3ccccn3)cc2C1=O,-0.5%,-2.8%,·,0.1%
N/C(Cc1ccc(Cl)cc1)=N\OC(=O)c1ccccc1,0.9%,-11.1%,7.2,2.8%
CCCN(Cc1cc2ccc(C)cc2[nH]c1=O)C(=O)c1ccccn1,0.7%,3.6%,2.1,-2.8%

# Copied from the listing (three entries):
SMILES,Rango complex inh,miR-21 reporter,GLA inh pH 4.5,Rango dissoc inh
Nc1nc(NCCN2CCOCC2)nc(NCc2ccccc2)c1[N+](=O)[O-],3.2%,-9.7%,-12.2,-11.1%
CC(C)(C)c1cc(NC(=O)c2cc(F)c(F)c(F)c2F)no1,-0.5%,0.3%,-3.6,13.6%
C=CCOc1ccc(C2c3c(oc4ccccc4c3=O)C(=O)N2CCCN2CCOCC2)cc1 (stereo not drawn),-4.3%,-22.0%,-8.0,-21.5%

# Continuation.
SMILES,Rango complex inh,miR-21 reporter,GLA inh pH 4.5,Rango dissoc inh
COc1ccccc1NC(=O)CN(C)S(=O)(=O)c1cccc2cccnc12,-1.5%,-2.2%&5.4%,·,-5.2%
Cc1ccc(C(=O)NCc2ccncc2)cc1S(=O)(=O)N1CCOCC1,-0.3%,-1.6%,·,-18.6%
Cc1cccc2sc(NC(=O)C3CCN(S(=O)(=O)c4cc([N+](=O)[O-])ccc4Cl)CC3)nc12,-1.8%,10.5%,-11.4,14.1%
CC12CCC(C(=O)N(CC3CO3)C1=O)C2(C)C (stereo not drawn),0.9%,-0.2%,-0.1,0.6%
COc1cc(NC(=O)c2cc(S(=O)(=O)N3CCCCC3)ccc2N2CCOCC2)cc(OC)c1OC,1.7%,·,·,?
CC(=O)Oc1ccc2oc(C)c(C(=O)N3CCOCC3)c2c1,-0.1%,-3.8%,-4.4,4.1%
Cn1cnc(S(=O)(=O)NCc2ccc(Br)cc2)c1,5.6%,0.5%,·,-1.0%
O=C(Nc1ccccc1OC(F)(F)F)c1ccc([N+](=O)[O-])cc1,-2.0%,-4.9%,1.1,25.5%
CCC(C(=O)OCC(=O)c1c(N)n(CC(C)C)c(=O)n(C)c1=O)c1ccccc1 (stereo not drawn),-2.2%,·,·,-17.3%
Nc1nonc1-c1noc(-c2ccccc2Br)n1,-0.3%,-35.7%,1.2,6.0%
COc1ccc(Cl)cc1S(=O)(=O)N1CCC(C(=O)NCc2ccco2)CC1,-0.2%,-2.3%,·,8.4%
CCOc1ccc(NC(=O)CN(C)C(=O)C2CC(=O)N(Cc3ccco3)C2)cc1OCC (stereo not drawn),-4.1%,·,·,-12.6%
COc1ccc2cc(C(=O)C3CCCN(C(=O)c4sc(C)nc4C)C3)ccc2c1 (stereo not drawn),1.9%,0.2%,·,24.2%
Cc1ccc(NC(=O)NCc2ccccn2)c(C)c1,-4.3%,-10.1%,·,18.2%
Cc1ccc(CNc2nc(C)nc3sc4c(c23)CCC4)cc1,-4.9%,0.8%,-1.8,-4.9%
CCCCN(C)CCC(=O)Nc1ccc(OC)cc1OC,-0.1%,-6.6%,-0.8,-0.9%
Cc1ccc(NC(=S)N2CCCN(Cc3ccc(F)cc3)C2)c(C)c1,-0.3%,0.9%,-6.6,-8.4%
Cc1[nH]c2ccc3ncccc3c2c1C,-3.2%,-28.4%,10.4,2.2%
O=C(CN1CCN(c2ccccc2F)CC1)Nc1ccccc1F,-1.9%,-7.5%,0.6,19.6%
Cc1ccc(Cn2c(CCC(=O)O)nc3ncccc3c2=O)cc1,-0.6%,0.8%,·,4.2%
Cc1cccc(C)c1NC(=O)CN1C(=O)CCSc2ccc(S(=O)(=O)N3CCCC3)cc21,0.5%,-2.8%&2.8%,·,-0.6%
Cc1ccccc1NS(=O)(=O)c1ccc(OCC(=O)N2CCCCC2)cc1,0.6%,5.9%,-3.3,3.4%
